Vaccinia mCherry: inhibitors of vaccinia virus infection (mCherry reporter signal); Vaccinia virus mCherry reporter infection, fluorescence; about a quarter of the inactives have no number; Potency, µM (series often up to 36.5 µM), for inactives: top-dose activity change, negative = inhibition, usual class: inhibitors; 0.63% of 310,000 active; active = well fitted inhibition curve with a large enough effect; inconclusive = small, poorly fitted or top-dose-only effect; inactive = no such curve, though single readings can be large or run the other way; tested in A549 cells; note: nearly all actives have a fitted effect of over 35% in size; inactives centre near -10
VACV Venus inh: vaccinia inhibition (Venus reporter) | 0.46% of 330,000 active | AID 720580 | Potency, µM (highest dose often 36.5 µM), inactives show at the top dose activity change, negative = inhibition, actives largely listed as inhibitors | Vaccinia virus Venus reporter expression, fluorescence; active means well fitted inhibition curve with a large enough effect; inconclusive means small, poorly fitted or top-dose-only effect; inactive means no such curve, though single readings can be large or run the other way; tested in A549 cells; note: nearly all actives have a fitted effect of over 30% in size; inactives centre near -10
* hit, by the source's call; i = inactive; ? = inconclusive; . = not tested or not shown; & = joins results of further samples; [ ] = remark or other dose. % is set by controls: 0 for no effect and ±100 for the full control effect; potency is the fitted concentration of half-maximal effect.

mol	Vaccinia mCherry	VACV Venus inh
Cn1cc(S(=O)(=O)N2CCC(Cc3ccccc3)CC2)c(=O)n(C)c1=O	i	-1%
COC(=O)N/C(C)=C1/NC(=O)c2ccccc2C(c2ccccc2)N1 (configuration not stated)	.	-8%
CCOCCCNC(=O)c1cn(C)c(=O)c2cc(OC)c(OC)cc12	-14%	-6%
CCNc1cccc2c1C(=O)N(C)C2=O	-3%	-4%
COc1ccccc1C1CN(Cc2cccc(C)n2)Cc2ccccc2O1 (configuration not stated)	-19%	-7%
O=C(Nc1cccnc1)c1ccc(Cl)c(S(=O)(=O)N2CCCCC2)c1	i	-18%
COc1ccc(CCN=C(N)NS(=O)(=O)c2cccs2)cc1OC	i	-1%
O=C(c1cccs1)N1CCC(c2nc3c(nnn3Cc3cccc(Cl)c3)c(=O)[nH]2)CC1	-6%	-2%
CCc1nc(SCC(=O)N2CCCC2)c2c(=O)n(C)c(=O)n(C)c2n1	i	-9%
CCn1cc(C(=O)NCc2ccco2)c(=O)c2cc(S(=O)(=O)N3CCCC3)ccc21	-3%	-17%
CC1(C)SC(=S)N(/N=C/c2ccc(O)cc2)C1N(O)C(=O)Nc1ccc([N+](=O)[O-])cc1 (configuration not stated)	.	?
CC1CCCC(C)N1C(=O)COC(=O)c1cc(S(=O)(=O)N2CCOCC2)ccc1Cl (configuration not stated)	i	-15%
COc1ccc(Nc2nc(-c3ccccc3O)nc3ccccc23)cc1	?	?
COc1ccc2c3c(c(=O)oc2c1OCC(N)=O)CCCC3	-15%	-10%
COc1ccc(NC(=O)CNC(=O)c2nn(-c3ccc(OC)c(Cl)c3)c(=O)c3ccccc23)c(OC)c1	i	-9%
COc1ccc(CC(=O)NC2CCS(=O)(=O)C2)cc1 (configuration not stated)	-18%	-6%
CCCc1[nH]n(-c2ccc([N+](=O)[O-])cc2)c(=O)c1C=NCCCn1ccnc1	-14%	-11%
CCN(Cc1ccccc1)CC(O)COc1ccccc1 (configuration not stated)	-18%	-8%
COc1cc2c(NC3CCN(C(C)C)CC3)nc(N3CCCN(C)CC3)nc2cc1OCCOCCN(C)C	1.6µM*	1.8µM*
CC1=CC(=C(C#N)c2nc3ccccc3s2)C=C(C)N1c1ccc(F)cc1	-3%	-8%
Cc1ccc(NC(=O)Cn2nc(C(=O)O)c3ccccc3c2=O)cc1S(=O)(=O)N1CCCCCC1	-20%	-5%
O=C(O)c1ccc(NC2=C(n3nnc4ccccc43)C(=O)c3ccccc3C2=O)cc1	-28%	-11%
CCCCNC(=O)C1(C)CCCCN1Cc1ccccc1-c1ccccc1 (configuration not stated)	i	4%
COc1ccc(N(CC(=O)N2CCN(c3ccccc3F)CC2)S(=O)(=O)c2ccc(C)cc2)cc1	-10%	-7%
COc1ccc(Cn2ccc3nc(C)c(C(=O)NCc4cccc(OC)c4)cc3c2=O)cc1	-4%	-7%
CN(C)c1nc(SCCOC(=O)COc2ccc(Cl)cc2Cl)nc(N(C)C)n1	i	-5%
CN1CCN(c2nc(-c3ccc(Cl)cc3)cc(=O)[nH]2)CC1	-7%	-14%
Cc1no[n+]([O-])c1COc1ccc(/C=C2\NC(=S)NC2=O)cc1	.	?
CC(=O)Nc1ccc(-n2c(CCC(=O)O)ccc2-c2ccc(Br)cc2)cc1	-5%	0%
c1ccc2c(c1)[IH]c1ccccc1-2	?	11µM*
O=C(COc1cccc2cccnc12)N/N=C1\SCC(=O)N1CCc1ccccc1	-9%	-2%
Cc1noc(C)c1NC(=O)Nc1ccc2c(c1)C(=O)N([C@H](C)CO)C[C@H](C)[C@@H](CN(C)C(=O)NC1CCCCC1)O2	-15%	-12%
CC1(C(=O)NS(=O)(=O)C2CC2)CCN(C(=O)c2ccc3ccccc3n2)C1 (configuration not stated)	37%[activator]	-3%
Clc1ccc(-c2nnc3cccc(Cl)n23)c(Cl)c1	.	-29%
O=C(CSc1nncn1-c1cccnc1)N1CCOCC1	i	11%
c1ccc(C2C3=C(CCCC3)Nc3ncnn32)cc1 (configuration not stated)	i	-2%
c1ccc2c(c1)-c1nc3ccccc3cc1C2N1CCOCC1 (configuration not stated)	-28%	-11%
O=C(CC(=O)c1ccccc1)c1ccccc1	-9%	-13%&-5%
COc1ccc(-c2nnc(SCC(=O)Nc3cc(S(=O)(=O)N4CCCCC4)ccc3Cl)n2N)cc1	-25%	-13%
COc1cc(C(=O)NCC(C)C)c([N+](=O)[O-])cc1OC	-12%	-7%
CCCS(=O)(=O)N1CCC(C(=O)NCC2CCCO2)CC1 (configuration not stated)	.	-7%
CN1c2ccccc2SC2C(c3ccccc3)=NOC21 (configuration not stated)	13%	-3%
CCOC(=O)N[C@H](Cc1c[nH]c2ccccc12)C(=O)Nc1cccc(Cl)c1	-9%	-14%
O=C(O)c1ccccc1-c1ccccc1C(=O)Nc1ccc2c(c1)[nH]c(=O)c1ccccc12	-11%	-13%
Cc1ccc(S(=O)(=O)NCC(=O)OCC(=O)Nc2cccc(S(=O)(=O)NC3=NCCCCC3)c2)cc1C	i	2%
CCOc1ccc(C(=O)Nc2cc(-c3nc4ccccc4o3)ccc2C)cc1Cl	-13%	-11%
Cc1c(/C=N/NC(=O)c2ccccc2O)c2ccccn2c1C(=O)c1ccc(F)cc1	?	?
COc1ccc(Nc2nc(C)nc(N)c2S(=O)(=O)c2ccccc2)cc1	-2%	4%
CCOC(=O)c1sc(NC(=O)CSc2nc(-c3ccco3)cc(C(F)(F)F)n2)c(C(=O)OC)c1C	-1%	0%
CCc1ccccc1NC(=O)c1ccc2snnc2c1	-12%	-9%

The list continues:
mol	Vaccinia mCherry	VACV Venus inh
O=C(Nc1nccs1)C1CCCN(S(=O)(=O)c2cccnc2)C1 (configuration not stated)	-10%	-2%
CC(C)(C)c1ccc(C(=O)N2CCC(=O)N(C(CO)Cc3ccccc3)CC2)cc1 (configuration not stated)	-6%	-25%
COc1ccc(NC(=O)CCNS(=O)(=O)c2ccc3c(c2)CCCC(=O)N3)cc1	-3%	5%
CCc1ccc(NC(=O)CSc2ccc(-c3ccco3)nn2)cc1	0%	-8%
CCC1CCCCN1C(=O)COc1cccc2c1CCN(C)C2=O (configuration not stated)	-13%	-5%
Cc1c(OCC(=O)N(C)C)ccc2c(-c3ccccc3)cc(=O)oc12	i	-6%
CCCNCc1cc(Br)ccc1OCC(=O)NCCc1ccccc1	?	?
O=C(c1cc2c(=O)n3ccccc3nc2s1)N1CCN(Cc2ccc3c(c2)OCO3)CC1	-14%	-22%
C[n+]1c(-c2ccccc2)cc(-c2ccc(Cl)cc2)cc1-c1ccccc1	i	-6%
CC(Nc1ccc(Cl)cc1)c1cc(Cl)ccc1O (configuration not stated)	.	?
COc1ccc(C(=O)Nc2cc(C)c(NC(=O)c3ccccn3)cn2)cc1	49%[activator]	-2%
O=C(Nc1cc(F)ccc1F)c1cc2nc(-c3ccco3)cc(C(F)(F)Cl)n2n1	-13%	-9%
COc1cc(NC(=O)c2cccc(C)c2)c(Cl)cc1[N+](=O)[O-]	-13%	-18%
COc1ccc(Cl)cc1-c1nc(SCC(=O)NCCN2C(=O)CSC2=O)n[nH]1	-11%	-6%
CCCCN(CC)CCCNC(=O)Cn1ncc2c3ccccc3n(Cc3ccccc3F)c2c1=O	-25%	-26%
COC(=O)c1ccc2nc(-c3ccc(F)cc3)c(Cc3ccccc3)n2c1	i	-1%
COC(=O)[C@]1(Cc2ccccc2)N[C@H](CN(C)S(=O)(=O)c2ccc(-c3ccccc3)cc2)[C@@H]2C(=O)N(C)C(=O)[C@@H]21	-9%	0%
CCN(CC)c1ccc(Nc2nc(Cl)ncc2Br)cc1	-27%	-6%
CC(=O)Nc1ccc(N(C(=O)c2ccccn2)C(C(=O)NC2CCCCC2)c2ccc(F)cc2)cc1 (configuration not stated)	-10%	4%
CCOC(=O)CSC1=C(C#N)C(c2ccco2)C(C(=O)Nc2cccc(C(F)(F)F)c2)=C(C)N1 (configuration not stated)	-13%	-4%
CCN1C(=NCC(C)C)N[C@@H](c2cccc(C(F)(F)F)c2)C(C(=O)OC)=C1C	18%	-7%
Cc1cccc(CN2CCN(C3CN(Cc4cn(Cc5cccc(C(F)(F)F)c5)nn4)S(=O)(=O)C3)CC2)c1 (configuration not stated)	14%	-9%
CN(C(=S)Nc1ccc(SC(F)F)cc1)c1ccc(O)cc1	-14%	0%
O=C(O)CCCN1C(=O)/C(=C/c2ccc(-c3nc4ccccc4s3)o2)SC1=S	i[1.46 µM]	-7%
COc1ccc2nc(Nc3nc(C)c(C(C)=O)s3)sc2c1	?	-25%
COc1ccc(/C(C)=N/NC(=O)CNC(=O)COc2ccccc2)c(OC)c1	-3%	-21%
CN(CC1CCOCC1)C(=O)CC1C(=O)NCCN1CC(c1ccccc1)c1ccccc1 (configuration not stated)	i	-11%
Cc1ccc(-c2csc(N(CCCN(C)C)C(=O)c3ccco3)n2)cc1	-4%	-8%
O=C1CCCc2cc(S(=O)(=O)N3CCCC(C(=O)NCc4ccc(Cl)cc4)C3)ccc2N1 (configuration not stated)	-5%	7%
Cc1ccc(C(=O)CCC(=O)OCC(=O)N(C)c2c(N)n(Cc3ccccc3)c(=O)[nH]c2=O)cc1	i	-12%
COc1cc2nc(NCCc3ccc(Cl)cc3)n3nc(-c4ccccc4)nc3c2cc1OC	i	-9%
O=C(COC(=O)c1ccc(F)cc1)Nc1ccccc1N1CCOCC1	-11%	-5%
Cc1ccc2ncccc2c1N	i	-18%
Cc1c(O)nc(SCC(=O)Nc2ccc(Cl)cc2Cl)n(-c2ccc(F)cc2)c1=O	-2%	-3%
Cc1ccc(-n2c(-c3ccncc3)n[nH]c2=S)cc1C	-8%	-9%
COc1ccc(NC(=O)CCc2nc3cccnc3n2-c2ccccc2)cc1Cl	-14%	-15%
C[C@@H](NC(=O)[C@@H]1Cc2ccccc2CN1)C(=O)NC1CCCCC1	-4%	-4%
COc1ccc(NC(=S)N2C3CCC2CC(NC(=O)NC24CC5CC(CC(C5)C2)C4)C3)c(OC)c1 (configuration not stated)	i	0%
O=C1CC(=O)N(c2cccc(Cl)c2)C(=O)N1	-28%	-4%
O=C(Nc1ccc(C(=O)N2CCCCC2)cc1)Nc1cccc(Cl)c1	-8%	-17%
Cc1ccc(C)n1CCN1CCN(C(=O)c2ccc(Cl)cc2)CC1	-20%	-17%
CCN(C(=O)CCN1C(=O)S/C(=C\c2ccccc2)C1=O)C1CCS(=O)(=O)C1 (configuration not stated)	-22%	-14%
COC(=O)C1=C(C)N(Cc2ccccc2)C(=S)N[C@H]1c1ccc(Br)cc1	i	-20%
Cc1onc(-c2ccccc2)c1NC(=O)N(CCC(=O)O)Cc1ccccc1	-4%	-10%
N/C(=N\N=C\c1cccs1)SC1CC(=O)N(c2cccc([N+](=O)[O-])c2)C1=O (configuration not stated)	8%	8%
COc1ccccc1N1CCN(C2=CC(=O)CCC2)CC1	i	-10%
CN(C)S(=O)(=O)c1cccc(NC(=O)CN2C(=O)NC(CCc3ccccc3)C2=O)c1 (configuration not stated)	-10%	-23%
COC(=O)c1ccccc1NC(=O)c1ccc(-c2nc(CSc3ccc(C)cc3)c(C)o2)cc1	9%	-3%
CCOC(=O)NCCc1c(C)nc2c(c(C)nn2C(C)(C)C)c1C	-13%	-23%
CCOc1ccc(S(=O)(=O)N(C)CC(=O)NCc2ccco2)cc1	-3%	2%

Five compounds drawn at random from those above:
mol	Vaccinia mCherry	VACV Venus inh
CC(Nc1ccc(Cl)cc1)c1cc(Cl)ccc1O (configuration not stated)	.	?
COc1ccc(Nc2nc(C)nc(N)c2S(=O)(=O)c2ccccc2)cc1	-2%	4%
Cc1ccc(C(=O)CCC(=O)OCC(=O)N(C)c2c(N)n(Cc3ccccc3)c(=O)[nH]c2=O)cc1	i	-12%
N/C(=N\N=C\c1cccs1)SC1CC(=O)N(c2cccc([N+](=O)[O-])c2)C1=O (configuration not stated)	8%	8%
O=C(Nc1cc(F)ccc1F)c1cc2nc(-c3ccco3)cc(C(F)(F)Cl)n2n1	-13%	-9%

(next part)
mol	Vaccinia mCherry	VACV Venus inh
CCCCNC(=O)c1cc2c(=O)n3cccc(C)c3nc2n(Cc2ccccc2)c1=N	-16%	-14%
CCOC(=O)CCSc1nc(C)c2cc(C)c(C)cc2n1	.	-3%
COC(=O)c1cc2sccc2n1CC(=O)Nc1cc(OC)cc(OC)c1	-2%	0%
CC(C)Oc1cccc(C(=O)C2CCCN(S(=O)(=O)C(C)C)C2)c1 (configuration not stated)	-20%	-13%
COc1cc(CCC(=O)OCC(=O)Nc2ccc(Br)cc2F)cc(OC)c1OC	-12%	-1%
COc1cccc2cc(C(=O)C3=C(O)C(=O)N(Cc4ccco4)C3c3cccnc3)oc12 (configuration not stated)	1%	-2%
O=C(c1cccc(Cl)c1)c1nn(-c2ccccc2)c(=O)cc1C(F)(F)F	.	-49%
O=C(COC(=O)c1cccnc1Cl)Nc1ccc2c(c1)OCO2	-4%	-10%
COc1ccc(C/C(C)=N/NC(=S)Nc2ccc(C(C)C)cc2)cc1	i	-11%
CN(C)S(=O)(=O)c1ccc(NC(=O)c2ccccn2)cc1	.	-12%

Bioassay records from PubChem BioAssay.
